Source: PubChem (Center for Chemical Genomics, University of Michigan)
CDC25B-CDK2 inh = primary biochemical HTRF screen for blockers of M-phase inducer phosphatase 2 binding to CDK2/cyclin A; 94,000 tested, 0.72% active; AID 1259370, 2018; z-score (concentration not given with the values); HTRF CDC25B-CDK2/CyclinA binding, anti-His/anti-Flag; stronger effect = higher value; P30305+P24941;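 further: score is relative to mean and SD of negative controls; strong numbers were not always called active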
HIV TAR-Tat = TAR RNA-Tat peptide displacers, HIV-1, primary screen, biochemical, FRET, FAM/TAMRA-labeled Tat; HIV-1 TAR RNA, Tat peptide displacement FRET; stronger effect = higher value; z-score (concentration not given with the values); 100,000 tested, 0.6% active;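 further: score is relative to mean and SD of negative controls; some compounds called inactive have numbers as strong as hits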
Starred values were filed as active, the others as inactive; · = not tested or not shown.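 How the source made its calls: active means z-score from 3 up in half or more of its runs; inactive means the rest.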 Rows were taken by chance. About 0.97% of those tested had a hit in this group.

SMILES	CDC25B-CDK2 inh	HIV TAR-Tat
Cc1cc2[nH]c(=O)c(=O)[nH]c2cc1S(=O)(=O)N1c2ccccc2CC1C (stereo not drawn)	·	1.73
O=C(Cc1cccs1)N1CCN(c2ccccn2)CC1	·	0.51
CCc1ccc(OCc2nc(-c3ccc(OC)c(OC)c3)no2)cc1	2.54	0.12
Nc1cnn(-c2ccccc2)c(=O)c1N	-0.39	0.45
O=C(CCCc1nc(-c2ccncc2)no1)Nc1nccs1	-0.98	-0.12
COc1ccc(OC)c(-c2noc(N3CCN(c4ccc(F)cc4)CC3)n2)c1	·	1.36
Cc1cccn2c(=O)c(C(=O)NCCC(C)C)c(O)nc12	-0.95	-1.33
O=S(=O)(NNc1ncccc1-n1cccc1)c1cc(Br)c(Br)s1	-1.81	·
COc1ccc(CCNCc2ccc3c(c2)n(C)c(=O)n3C)cc1OC	-0.82	0.71
COc1ccc2nc(NC(=O)NCc3noc4ccccc34)sc2c1	·	-0.15
Cc1ccc(-c2c(C#N)c(N)nc(C)c2-c2ccccc2)o1	-1.32	0.47
Cc1ccc(C)c(Nc2ncnc3sc(C)c(C)c23)c1	·	-0.02
N#CC1=C(O)c2ccccc2N(S(=O)(=O)c2ccc(Cl)cc2)CC1	-0.09	·
COc1ccc(-c2nnc3n2C(C)(C)Cc2cc(OC)c(OC)cc2-3)cc1	1.44	2.4
O=C(CN1C(=O)COc2ccc(Cl)cc21)Nc1nccs1	-1.27	-0.47
CCC(=O)N1c2cc(C)c(C)cc2C(=C2SC(C(=O)OC)=C(C(=O)OC)S2)C(=S)C1(C)C	0.64	-1.81
O=C(c1cccs1)N1CCN(S(=O)(=O)c2cc3c4c(c2)CCC(=O)N4CCC3)CC1	·	-1.66
Cn1sc(=O)c2cc(S(=O)(=O)Nc3ccccc3N3CCCCC3)ccc21	-1.32	·
COC(=O)c1sc(NC(=O)CSc2ncnc3sc4c(c23)CCCC4)c(C(=O)OC)c1C	-1.74	·
Cc1cc2n(n1)CCC(=O)N2CC(=O)N1CCCCC1	·	0.08
Cc1ccc(OC(=O)c2nc(S(C)(=O)=O)ncc2Cl)cc1	0.63	0.58
COc1ccccc1C(=O)OCc1cc(=O)n2c(-c3ccccc3)csc2n1	·	-0.97
CSCCC(NC(=O)c1cc(C)oc1C)C(=O)O (stereo not drawn)	-1.68	2.85
CSc1cccc(NC(=S)N2CCCCC2CCN2CCOCC2)c1 (stereo not drawn)	-0.01	·
O=C(CN1C(=O)CSc2ncccc21)N1CCN(C2CCCCC2)CC1	0	0.36
COC(=O)C1=C(C(=O)OC)SC(=C2C(=S)C(C)(C)Nc3cc(C)c(C)cc32)S1	-0.72	2.24
CC1=NC(C)(C)C(C)c2c1ccc1ccccc21 (stereo not drawn)	0.34	·
COc1ccc(C(=O)Cc2ccccc2)cc1OC	-1.39	·
N#Cc1cc2c(=O)n3ccccc3nc2n(Cc2ccccc2Cl)c1=O	-16.7	-5.51
CC(C)N(Cc1ccc(N(C)C)cc1)S(=O)(=O)c1ccc(F)cc1	1.2	·
Cc1ccc(N2C(=O)c3cccnc3C2Nc2ccc(C)c(F)c2)cc1 (stereo not drawn)	0.37	0.59
CCc1nnc2c(Nc3cc(C)ccc3O)nc3ccccc3n12	·	0.36
c1ccc2c(c1)c(NCCN1CCOCC1)nn1nnnc21	-0.27	0.81
Cc1nc(SCC(=O)c2ccc(O)c(O)c2)c(C#N)c(-c2ccc(Br)cc2)c1C#N	-0.39	·
Cc1ncc(COC(=O)C(C)C)c2cc(-c3nc(-c4ccc(Br)cc4)no3)c(=O)oc12	·	-5.54
CCN1CCCC1CNC(=O)CCCN1C(=O)CCn2nc(C)cc21 (stereo not drawn)	·	1.26
COC(=O)CSc1nnc2n(-c3ccc(OC)cc3)c(=O)c3c4c(sc3n12)COC(C)(C)C4	-0.26	1.17
CC1CN(C(=O)CCC(=O)NCCN2CCOCC2)c2cc(Cl)ccc2O1 (stereo not drawn)	-1.11	-2.07
CC1CCc2c(sc3c2CSC(C(=O)Nc2cccc(F)c2)=C3)C1 (stereo not drawn)	·	-2.69
O=C(Nc1ccc2oc(-c3ccc(F)cc3)nc2c1)c1ccc([N+](=O)[O-])o1	0.59	2.36
Cc1occc1-c1nnc(SCC(=O)N(C)c2ccccc2)o1	-2.22	3.1
N#Cc1sc2nc3ccccc3n2c1N	-1.27	·
CC(=O)N1CCC(C(=O)O)CC1	-0.53	·
Cn1nnnc1SCCCNCc1ccc(OCc2ccccc2Cl)cc1	-0.3	-0.66
C=CCN(Cc1nc(-c2ccc(C)cc2)no1)S(=O)(=O)c1ccccc1	-1.65	0.25
COc1ccc(C2c3c(-c4ccccc4O)n[nH]c3C(=O)N2CCCO)cc1 (stereo not drawn)	-2.47	-0.48
O=S(=O)(NCCc1nnc2ccc(SCc3ccc(Cl)cc3)nn12)c1ccccc1	·	1.5
COC(=O)CSc1ncn(S(=O)(=O)c2ccc(Cl)cc2)n1	-0.42	1.63
COc1ccc(-n2ccc(=O)c(C(=O)Nc3ccc(OC)cc3OC)n2)cc1	-0.05	-0.46
O=S(=O)(c1ccc(Cl)cc1)c1nnn2c1nc(NCc1ccccc1)c1sccc12	·	1.6

4 structures from above, sorted by formula weight, smallest number first.
SMILES	CDC25B-CDK2 inh	HIV TAR-Tat
Cc1occc1-c1nnc(SCC(=O)N(C)c2ccccc2)o1	-2.22	3.1
COC(=O)CSc1ncn(S(=O)(=O)c2ccc(Cl)cc2)n1	-0.42	1.63
C=CCN(Cc1nc(-c2ccc(C)cc2)no1)S(=O)(=O)c1ccccc1	-1.65	0.25
O=S(=O)(NCCc1nnc2ccc(SCc3ccc(Cl)cc3)nn12)c1ccccc1	·	1.5

The results go on:
SMILES	CDC25B-CDK2 inh	HIV TAR-Tat
N#CC1=C(N)Oc2cc(O)ccc2C1c1ccc2c(c1)OCO2 (stereo not drawn)	-1.68	-0.97
COc1cc(S(C)=O)ccc1-c1nc2ncccc2[nH]1 (stereo not drawn)	·	1.62
Cc1ccc(-n2ccc(=O)c(C(=O)Nc3sc4c(c3C#N)CCCC4)n2)cc1	-0.33	0.38
Cc1cc(Cl)ccc1OCC(=O)Nc1sc2c(c1C(N)=O)CCC2	-1.42	0.82
COCCCNC(=O)N1[C@H](c2cccs2)[C@@H](C)C(=O)[C@@H](C)[C@@H]1c1cccs1	-1.23	0.86
CCOC(=O)/C(C#N)=C/Nc1ccc(S(=O)(=O)c2ccc(N/C=C(\C#N)C(=O)OCC)cc2)cc1	-1.33	·
CC1CCCN(S(=O)(=O)c2ccc(-c3ccc(=O)[nH]n3)o2)C1 (stereo not drawn)	·	2.86
Cc1ccc(S(=O)(=O)NCCc2csc3nc(-c4cccc(F)c4)nn23)c(C)c1	·	0.88
CC(C)CNc1nc(-c2ccccc2)nc2ccccc12	-1.05	·
O=C(C1CC1)N1CCC(n2nc(-c3ccccc3)oc2=O)CC1	-1.16	1.6
CCOc1ccc(-n2cc[nH]c(=S)c2=O)cc1	-0.76	0.3
N#Cc1c(NC(=O)c2noc3c2CCCCC3)sc2c1CCCC2	-0.31	·
CC1(C)CCC[C@@](C)([C@H]2CC[C@]3(C)[C@@H]2[C@H](O)C[C@@H]2[C@@]4(C)CC[C@H](O)C(C)(C)[C@@H]4[C@@H](O)C[C@]23C)O1	·	-0.51
CCN(CC)C(=O)c1ccc(CS(=O)c2ccc(Cl)cc2)o1 (stereo not drawn)	-1.33	-0.39
N#Cc1nc(/C=C/c2cccs2)oc1NCCCN1CCOCC1	-1.63	1.84
C=CCn1c(=O)c(C(=O)Nc2ccc(O)cc2)c(O)c2ccccc21	0.21	0.02
Cc1ccn2c(=O)c(C(=O)NCc3ccccn3)c(O)nc2c1	0.09	-0.42
Cc1cc(C)c2nc(N3CCCC(C(=O)N4CCN(c5ncccn5)CC4)C3)sc2c1 (stereo not drawn)	-1.38	0.62
Cc1ccc(C(=O)c2oc3ccccc3c2NC(=O)c2snnc2C)cc1	-1.13	0.67
Cc1ccc(-c2nonc2NC(=O)c2nn(-c3ccc(F)cc3)ccc2=O)cc1	-0.07	1.15
Cc1ccc(-c2c3c(=O)n(C)c(=O)n(C)c3c3cnc4ccccc4n23)cc1	0.31	0.34
CCOC(=O)c1c(C)nc2sccn12	-0.05	0.64
CCCCC[C@H](O)/C=C/[C@@H]1[C@@H](C/C=C\CCCC(=O)O)[C@@H](O)C[C@H]1O	·	2.51
CCOc1ccc(S(=O)(=O)[C@H]2CS(=O)(=O)C[C@@H]2N2CCC(C)CC2)cc1	-0.96	0.76
O=C(CCC(=O)N1Cc2cccn2-c2ccccc21)NC1CCCCC1	·	0.87
COc1ccc(S(=O)(=O)N2CCN(c3nc4ccccc4n4cccc34)CC2)cc1OC	-1.46	1.74
O=C(Nc1cccc2cccnc12)C1CCC1	·	0.66
Cn1cnc2c(C(=O)O)nn(-c3ccccc3)c2c1=O	-1.26	1.03
COc1ccc(NS(=O)(=O)c2cc3c(cc2Cl)NC(=O)CO3)c(OC)c1	·	0.19
Cc1ccc(/C=C/C(=O)Nc2ncc(Cc3cccc(C(F)(F)F)c3)s2)cc1	-2.42	·
CCC(CC)C(=O)Nc1ccccc1SCc1cc(=O)n2cc(C)sc2n1	·	0.07
FC(F)(F)Oc1ccc(NCn2nnc3ccccc32)cc1	-1.02	·
CC(C)OCCCNC(=O)C1c2c(n(C)c3ccccc23)SCC(=O)N1C(C)C (stereo not drawn)	·	1.51
COc1ccccc1-c1nnc(SCc2ccc(F)cc2)o1	1.82	0.56
Cc1ccnc(SCC(=O)Nc2ncc(Br)s2)n1	-1.81	-0.86
CCC(Sc1nncn2c1cc1occc12)C(=O)NCc1ccc(C)cc1 (stereo not drawn)	·	2.36
Cc1ccc(CN2CCC(CNC(=O)Nc3cn(CC(C)C)c(=O)c4ccccc34)C2)cc1 (stereo not drawn)	·	1.32
CS(=O)(=O)Nc1ccc(C2=NN(C(=O)CCC(=O)O)C(c3ccc(F)cc3)C2)cc1 (stereo not drawn)	-1.62	·
COc1ccc2nc(NC(=O)Oc3ccccc3)sc2c1	-1.28	-0.55
CC(C)(C)c1csc(Sc2ccc([N+](=O)[O-])cn2)n1	-1.91	·
Cn1nc(C(=O)NC2CCCC2)c2c1-c1ccccc1S(=O)(=O)C2	-1.55	1.47
O=C(C1CCC(CNc2c(N3CCCCC3)c(=O)c2=O)CC1)N1CCCC1 (stereo not drawn)	-1.82	1.09
COCCCNCCn1cnc2c(N)ncnc21	-1.2	0.49
O=C(CSc1n[nH]c(-c2ccccc2Cl)n1)N1CCc2ccccc21	·	0.62
CCOC(=O)c1c(NC(=O)COC(=O)CN2C(=O)C(=O)c3ccccc32)sc2c1CCCC2	-2.18	0.74
Cc1ccc(C2CC(=O)Nc3c2c(C)nn3-c2nncc(-c3ccc(F)cc3)n2)cc1 (stereo not drawn)	1.96	1.97
CCCCc1nn2c(=O)cc(CSc3ccccc3NC(=O)c3cccs3)nc2s1	·	-0.03
CN(C)c1ccc(C(=O)CC2(O)C(=O)N(C)c3ccccc32)cc1 (stereo not drawn)	-1.12	·
CCC(=O)NC(NC(=S)Nc1ccc(Cl)c(Cl)c1)C(Cl)(Cl)Cl (stereo not drawn)	-3.59	·
O=c1c(O)c(-c2ccc(O)c(O)c2)oc2cc(O)ccc12	·	3.65

Three entries from above, with values under each structure:
Order of values: CDC25B-CDK2 inh, HIV TAR-Tat
CCOC(=O)c1c(NC(=O)COC(=O)CN2C(=O)C(=O)c3ccccc32)sc2c1CCCC2
    -2.18, 0.74
Cc1ccc(C2CC(=O)Nc3c2c(C)nn3-c2nncc(-c3ccc(F)cc3)n2)cc1 (stereo not drawn)
    1.96, 1.97
CCCCc1nn2c(=O)cc(CSc3ccccc3NC(=O)c3cccs3)nc2s1
    ·, -0.03

Reprinted at random: two entries already listed.
SMILES	CDC25B-CDK2 inh	HIV TAR-Tat
O=C(C1CCC(CNc2c(N3CCCCC3)c(=O)c2=O)CC1)N1CCCC1 (stereo not drawn)	-1.82	1.09
Cn1nc(C(=O)NC2CCCC2)c2c1-c1ccccc1S(=O)(=O)C2	-1.55	1.47

(more compounds)
SMILES	CDC25B-CDK2 inh	HIV TAR-Tat
Cc1cccc(C(=O)OCc2cc(=O)n3ccsc3n2)c1	·	0.19
C=C[C@@](C)(O)CCC1C(=C)C[C@H](O)C2C(C)(C)CCCC12C (stereo partly drawn)	·	3.65
CCN(c1ccccc1)S(=O)(=O)c1ccc(-c2cc(C)[nH]n2)s1	·	-0.37
CSc1cccc(NC(=O)CSc2nnc(-c3ccoc3C)o2)c1	-1.8	2.09
O=C(Nc1ccc(O)c(-c2nc3ccccc3o2)c1)c1cc2ccccc2o1	-5.32	·
Cc1ccc(CNc2c(-c3ccc(C)cc3)c(=O)c2=O)cc1	·	0.6
COc1ccc2c3c([nH]c2c1)C(C)(C(=O)O)NCC3 (stereo not drawn)	5.11	-8.23
Cc1cc(C)c(C#N)c(OCC(=O)Nc2ccc(Oc3ccccc3)cc2)n1	-4.32	·
COC(=O)c1sc2ccccc2c1OS(=O)(=O)c1ccc(Cl)cc1	-1.56	·
O=c1[nH]nc(-c2ccc(Cl)cc2)c2c1Nc1nnnn1C2c1ccccc1F (stereo not drawn)	-2.31	-1.75
O=C(Cn1ncc2c1-c1ccccc1OC2)N(Cc1ccco1)C1CCCCC1	-0.74	0.04
CC1=C(C(=O)NCCN2CCOCC2)C2(CCC(C)CC2)OC1=O (stereo not drawn)	0.04	·
Cc1cc2[nH]c(=O)c(=O)[nH]c2cc1S(=O)(=O)NC1CCC(C)CC1 (stereo not drawn)	·	0.74
CCOc1ccc(N2C(=O)C3C(C2=O)N2CCCN2C3c2ccc(F)cc2)cc1 (stereo not drawn)	-1.66	2.13

Single records, from the list above.
CC1=C(C(=O)NCCN2CCOCC2)C2(CCC(C)CC2)OC1=O (stereo not drawn) as listed: CDC25B-CDK2 inh: 0.04; HIV TAR-Tat: ·
O=C(Cn1ncc2c1-c1ccccc1OC2)N(Cc1ccco1)C1CCCCC1 as listed: CDC25B-CDK2 inh: -0.74; HIV TAR-Tat: 0.04
